Bioassay records from PubChem.
AID504770 – growth inhibition of E. coli YBA685, primary screen, V. cholerae RctB inhibitors; E. coli YBA685 rctB-dependent plasmid, OD600 growth, 3 h; hits give low values; z-score (concentration not given with the values); hit rate 0.27% among 130,000; AID 504770, 2011;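 active = z-score under -2 on both plates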;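 also: wells of about 30 µL received 100 nL stock; score is relative to mean and SD of the test wells; the first replicate is given; strong numbers were not always called active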
CapD inh – Bacillus anthracis CapD inhibitors, primary screen, biochemical, fluorescence intensity | purified CapD enzyme, fluorescence intensity read-out; hits give low values; some hits fall short of the stated cut | AID 492967, 2010 | CapD gamma-glutamyltranspeptidase (Bacillus anthracis Ames Ancestor) | hit rate 0.23% among 140,000 | z-score (test concentration not listed);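 active = z-score under -4 in either of two replicates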;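 also: stock transfer was 100 nL into about 40 µL; score is relative to mean and spread of the plate; one replicate is shown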
Numbers without * were called inactive; . = not tested or not shown; & = joins results of further samples. An excerpt, so the mix of outcomes need not match the whole.

Below each compound: CapD inh | AID504770
- COC(C(=O)N/N=C/c1cc(Br)c(C)o1)c1ccccc1 (stereo not given)
 : -0.12 | -0.05
- Nc1sc(=S)n(-c2ccccc2)c1-c1nc2ccccc2s1
 : 40 | 0.35
- CN1NC2(CCCCC2)N(c2ccccc2)C1=S
 : 0.24 | -0.7
- COc1cc(/C=C2\C(=O)NC(=S)N(c3ccc(Br)cc3)C2=O)ccc1OCC(=O)O
 : -1.3 | .
- CC1=NN(c2ccccc2)C(c2ccc(OCC(=O)N3CCCC3)cc2)C1 (stereo not given)
 : 0.86 | -0.4
- O=C(O/N=C1\CCCCC1c1ccc([N+](=O)[O-])cc1[N+](=O)[O-])c1ccccc1 (stereo not given)
 : 19 | .
- CCc1ccc(NC(=S)Nc2cc(C)cc(C)c2)cc1
 : -0.14 | .
- CCC(=O)Nc1cccc(-c2nc3ccccc3o2)c1
 : 5.6 | -0.2
- CCCS(=O)(=O)c1c(S(=O)(=O)CCC)c2ccccn2c1C(=O)c1ccccc1
 : 0.55 | .
- CC(C)NC(=O)c1cn2c3c(ccc(Cl)c3c1=O)OC(C)C2 (stereo not given)
 : 111 | -1.1
- Cc1ccc(C(=O)c2oc3ccccc3c2NC(=O)C2COc3ccccc3O2)cc1 (stereo not given)
 : -0.21 | 0.05
- c1ccc(-c2cnnn2-c2ccccc2)cc1
 : . | -0.55
- O=C(O)Cn1c2ccccc2c2nn3c(nc4ccccc43)nc21
 : 0.01 | .
- CC(C#N)Sc1nnc(-c2ccccc2F)n1CCc1ccccc1 (stereo not given)
 : . | 0.85
- CC(C)N(Cc1nc(-c2ccccc2)no1)C(=O)c1ccc(Cl)cc1
 : -0.82 | -0.25
- COC(=O)C1=CN(CC(C)C)C=C(C(=O)OC)C1c1cccs1
 : 112 | -1.2
- Cc1cc(C)nc(SCc2csc(N)n2)n1
 : 0.36 | -0.4
- O=S(=O)(c1ccc(N2CCOCC2)nc1)N1CCSCC1
 : 0.56 | -0.05
- COC(=O)C1=C(C(=O)OC)SC2(S1)C(C(=O)OC)=C(C(=O)OC)SC1=C2c2cc(C)c(C)cc2N(C(=O)C(F)(F)F)C1(C)C
 : -0.5 | .
- CCOC(=O)c1c(NC(=O)CSc2n[nH]c(N)n2)sc(C(=O)N(CC)CC)c1C
 : . | 0.2

Below each compound: CapD inh | AID504770
- COc1ccc(S(=O)(=O)NC2CCc3ccccc32)cc1OC (stereo not given)
 : -0.11 | -0.9
- CC(C)CN1C(=O)c2ccc(C(=O)O)cc2C1=O
 : 0.095 | -0.45
- CCOC(=O)N1CCC(N2CC34C=CC(O3)C(C(=O)Nc3ccc(C)c(F)c3)C4C2=O)CC1 (stereo not given)
 : 1.4 | -0.3
- COc1ccc(C(NC(=O)c2cccnc2)c2cc(Cl)c3cccnc3c2O)cc1OC (stereo not given)
 : -0.01 | .
- O=C(O)c1ccccc1C(=O)N1CCN(c2ccccc2)CC1
 : -0.57 | -0.5
- c1ccc(CSc2nnc(-c3cccs3)n2-c2ccccc2)cc1
 : . | 0.4
- Cc1ccc(N2C(=O)/C(=C/C=C/c3ccccc3)SC2=S)cc1
 : -0.2 | 0.45
- Cc1ccc(NC(=O)c2ccc3ncsc3c2)c(O)c1
 : . | -1.7
- O=c1[nH]c2ccccc2n1CN1CCC(c2nc3ccccc3s2)CC1
 : . | 1.4
- O=C1c2cccnc2C(=O)N1c1ccccc1
 : 0.53 | 0.35
- S=C(Nc1ccc(Cl)cc1)Nc1ccccn1
 : -0.68 | .
- c1cnc(SCc2cn3ccsc3n2)nc1
 : . | -0.95
- O=C(COc1ccccc1Cl)N/N=C/c1ccco1
 : -0.16 | .
- O=C(CN1CCCCC1)Nc1nonc1NC(=O)CN1CCCCC1
 : -0.01 | -0.9
- O=C(CSc1nc2ccccc2[nH]1)Nc1ccc(Cl)c(C(=O)O)c1
 : -0.96 | .
- COc1cccc(C(=O)NCc2nc(-c3ccccc3Cl)no2)c1
 : -0.38 | 0.55
- Cc1onc(-c2ccccc2)c1C(=O)NC1CCS(=O)(=O)C1 (stereo not given)
 : -0.51 | -0.9
- Cc1[nH]c2ccccc2c1C(=O)C(C)N1CCN(C(=O)c2ccccc2)CC1 (stereo not given)
 : . | 0.1
- NC(CC(=O)O)c1ccsc1 (stereo not given)
 : 0.12 | -0.35
- COc1ccc(C(CCNCc2ccccc2)C2CCOC(C)(C)C2)cc1 (stereo not given)
 : -0.065 | 0.6

Below each compound: CapD inh | AID504770
- Fc1ccc(-n2c(Cc3ccsc3)n[nH]c2=S)cc1
 : 0.1 | 0.3
- CCCc1nc2ccccc2c2c1C(=O)N(C1CCN(Cc3ccccc3Sc3ccc(Cl)cc3)C1)C2=O (stereo not given)
 : -0.24 | .
- CCN(CC)S(=O)(=O)c1ccc(Cl)c(C(N)=O)c1
 : 0.03 | -0.35
- CCc1ccc[n+](-c2[nH]c(=O)sc2/C=N/N=C(/N)[O-])c1
 : . | -0.05
- Cc1cccc(N2C(=O)c3ccc(C(=O)Nc4ccccc4O)cc3C2=O)c1
 : -0.055 | 0.4
- O=C(NCC1CCCO1)NC1CCCCC1 (stereo not given)
 : . | -0.6
- N#Cc1c(C(F)(F)F)cc(-c2ccc(Cl)cc2)nc1N1CCOCC1
 : 1.2 | .
- COc1ccccc1-n1c(SC)nc2ccccc2c1=O
 : 0.21 | -0.95
- COc1ccc(/C=C2\C=C(c3ccccc3)N(c3ccc(C)cc3Br)C2=O)cc1
 : -1.2 | .
- Cc1csc(-c2nc(-c3ccc(Cl)cc3)no2)c1Cl
 : -0.68 | -0.5
- C=CCN1C(=S)N(c2ccccc2)C2CS(=O)(=O)CC21 (stereo not given)
 : 0.84 | 0.1
- CC1(C)C2CCC1(C)C(NC(=O)c1cc(=O)[nH]c3ccccc13)C2 (stereo not given)
 : . | -0.1
- CCC(Oc1cccc(Cl)c1)C(=O)NN1CCN(C)CC1 (stereo not given)
 : 0.21 | -0.75
- CCOc1ccc(C2C(N3C(=O)c4ccc([N+](=O)[O-])cc4C3=O)C(=O)N2c2ccc(OC)cc2)cc1 (stereo not given)
 : -0.18 | .
- O=c1c2cccc3cccc(c32)c2nc3ccccc3n12
 : 2.6&-0.29 | .
- COc1ccc(N(C)C(=O)NCc2noc3ccccc23)c(OC)c1
 : 0.27 | 0.25
- Cc1ccc(S(=O)(=O)N(C)CC(=O)N2CCC(C)CC2)cc1
 : -0.095 | 1.2
- O=S(=O)(c1cc(Cl)ccc1Cl)N1CCCC(CO)C1 (stereo not given)
 : -0.05 | .
- CC(C)N1CC2=C(OC(N)=C(C#N)C2c2ccccc2F)/C(=C/c2ccccc2F)C1 (stereo not given)
 : 0.62 | .
- O=C(Cn1[nH]c(=O)c2ccccc2c1=O)NC1CCCc2ccccc21 (stereo not given)
 : . | -0.6

Of the compounds above, these have a thiophene ring, fused or not.
Below each compound: CapD inh | AID504770
- COC(=O)C1=CN(CC(C)C)C=C(C(=O)OC)C1c1cccs1
 : 112 | -1.2
- CCOC(=O)c1c(NC(=O)CSc2n[nH]c(N)n2)sc(C(=O)N(CC)CC)c1C
 : . | 0.2
- c1ccc(CSc2nnc(-c3cccs3)n2-c2ccccc2)cc1
 : . | 0.4
- NC(CC(=O)O)c1ccsc1 (stereo not given)
 : 0.12 | -0.35
- Fc1ccc(-n2c(Cc3ccsc3)n[nH]c2=S)cc1
 : 0.1 | 0.3
- Cc1csc(-c2nc(-c3ccc(Cl)cc3)no2)c1Cl
 : -0.68 | -0.5

Continuation:
Below each compound: CapD inh | AID504770
- C/C(N)=N\N(C)c1cccc(F)c1C#N
 : 0.26 | 1.6
- Cc1sc2c(c1C)c(=O)nc1scc(CC(=O)NCCO)n12
 : -1 | 1.6
- C[N+]12CCCCC1C(COC(=O)c1ccccn1)CCC2 (stereo not given)
 : -0.24 | -0.2
- COc1ccc(C2=NN(C(=O)CNc3ccccc3C(=O)Nc3ccccc3)C(c3ccco3)C2)cc1 (stereo not given)
 : . | 0.35
- CCN1CCN(c2c(C(=O)c3ccc(OC)cc3)cnc3ccccc23)CC1
 : -1.2 | 0.3
- OC1(c2ccc(Cl)cc2)CCN(Cn2nnc3ccccc32)CC1
 : 0.31 | 0.1
- Cc1ccccc1N(CC(=O)NC1=NCCS1)S(C)(=O)=O
 : . | 0.55
- Cc1ccc(-c2[nH]nc3c2C(c2ccccc2OC(=O)N2CCOCC2)C(C#N)=C(N)O3)cc1 (stereo not given)
 : 0.51 | .
- c1cncc(CN2CNc3nc4ccccc4n3C2)c1
 : -0.29 | -0.8
- CCc1nn(C(C)C(=O)N2CCN(c3cccc(OC)c3)CC2)c(=O)c2cc3occc3n12 (stereo not given)
 : -0.23 | -0.3
- CCCCCCCCCC1NC(C(=O)O)Cc2c1[nH]c1ccccc21 (stereo not given)
 : 1.5 | .
- Nc1c(C(=O)Nc2ccc(Cl)cc2)sc2nc3c(c(-c4ccco4)c12)CCCC3
 : -0.62 | .
- COC(=O)c1cnc(Nc2ccccc2)nc1C(F)(F)F
 : -1.3 | 0.05
- Cn1c(=O)c2cnc(N3CCCCC3)nc2n(C)c1=O
 : . | -0.7
- Cc1c(CO)c2ccccc2n1Cc1ccccc1
 : -0.13 | 0.95
- O=C(N/N=C/c1ccc(Cl)cc1)c1ccc([N+](=O)[O-])cc1Cl
 : -0.085 | .
- Cc1ccccc1OCC(=O)NN=C1CCN(C)CC1
 : -0.15 | -0.45
- C=CC1Oc2ccc(Cl)cc2NC12C=C(C(C)(C)C)C(=O)C(C(C)(C)C)=C2 (stereo not given)
 : -0.01 | .
- FC(F)(F)c1ccccc1-c1[nH]ncc1-c1ccncn1
 : -0.46 | .
- CC(C)C(c1nnnn1C(C)(C)C)N(Cc1cc2cc3c(cc2[nH]c1=O)OCCO3)C1CCCCC1 (stereo not given)
 : . | 0.95

Below each compound: CapD inh | AID504770
- NC(=O)c1ccc(F)c(F)c1
 : . | -0.9
- OC1CC(c2ccccc2)NC2(CCCCC2)C1 (stereo not given)
 : 0.38 | 0.25
- O=C(CCc1nc(-c2ccc(Cl)cc2)no1)Nc1cccc(Cl)c1Cl
 : 0.15 | .
- CCc1nc2ccc(C(=O)NC)cc2nc1CC
 : -0.72 | 0.3
- CCOC(=O)C(C)(C)Sc1ncnc2nc[nH]c12
 : -0.17 | -0.7
- CCCCOc1ccc2c(c1)C(=O)c1cc(O)ccc1-2
 : -0.44 | -0.2
- CN1C=CC=C/C1=C1\SC(=S)N(Cc2ccccc2)C1=O
 : -1.3 | -0.1
- CC(C)(Sc1cc(C(C)(C)C)c(O)c(C(C)(C)C)c1)Sc1cc(C(C)(C)C)c(O)c(C(C)(C)C)c1
 : -1.4&-0.085 | 0.4
- O=C(O)CSc1nncc2ccccc12
 : 0.32 | .
- CSCCNC(=O)Nc1ccc(Cl)cc1
 : 0.23 | 0
- CC1=NN(CCC(=O)O)CC1
 : . | -1.7
- CCN(CC)CC(=O)Nc1sc2c(c1C#N)CCCC2
 : . | -0.75
- Cc1ccc(CSc2nc3c(c(Oc4ccc(F)cc4F)n2)CCCC3)cc1
 : -0.17 | .
- CCN(CCCNC(=O)Cc1c(C(=O)O)n(CC)c2ccccc12)Cc1ccccc1
 : 0.23 | .
- O=C(NCc1ccccn1)c1cc2sccc2nc1C(F)(F)F
 : -0.2 | .
- CC(C)CCn1c(=O)c2ccccc2n2c(CSc3n[nH]c(N)n3)nnc12
 : . | 0.25
- O=C(N/N=C/c1ccc(Oc2ccccc2)cc1)c1cccc(Cl)c1
 : -0.65 | .
- CN1/C(=C/C(=O)CSC2CCCC2)C(C)(C)c2ccccc21
 : 6.5 | 0.8
- CCCCOc1ccccc1C(=O)N(Cc1cccc(F)c1)Cc1ccco1
 : -0.59 | 2.3
- COc1cc(/C=N/NC(=O)c2cc(Br)ccc2Cl)cc([N+](=O)[O-])c1O
 : -2.2 | .

Below each compound: CapD inh | AID504770
- COC(=O)c1sc(N)c(C(=O)OC)c1COC(=O)CSc1nnnn1-c1cc(C)ccc1C
 : . | 0.1
- CC1CCN(S(=O)(=O)c2cn(CC(=O)N(C)Cc3ccccc3)c(=O)c3ccccc23)CC1
 : -0.15 | 0.05
- Cc1cc(=O)oc2cc(OCC(=O)Nc3ccccc3)ccc12
 : 22 | 0.05
- O=C1CC(C(=O)Nc2cccc(F)c2)n2c(nc3ccccc32)N1 (stereo not given)
 : 0 | 0.15
- Cc1cccc(C(=O)NCCCc2nc3ccccc3[nH]2)c1
 : 0.13 | -0.7
- CC1CCN(C(=O)CSc2nc(-c3ccco3)nc3c2c(=O)n(C)c(=O)n3C)CC1
 : -0.18 | 1.6
- CSc1cccc(NC(=O)CNS(=O)(=O)c2ccc(C)cc2)c1
 : 0.58 | -0.45
- COc1ccc2nc(Nc3nc4ccccc4s3)sc2c1
 : . | 0.05
- CCOC(=O)c1cnc2c(ccc3ccccc32)c1Nc1ccc(C)c(C)c1
 : -0.72 | .
- COc1ccccc1C(=O)Nc1ccc2nc(SCC(=O)NCc3ccccc3)sc2c1
 : 1.3 | .
- CCS(=O)(=O)c1ccc(OC)c(N2NOC=C2O)c1
 : . | 0.55
- CCOC(=O)c1ccc(N=C2SC(C(=O)Nc3cccc(C)c3)CC(=O)N2C)cc1 (stereo not given)
 : -0.1 | .
- Cc1noc(C)c1-c1nc(CS(=O)(=O)c2ccsc2)no1
 : 0.095 | -0.35
- COc1ccc(C)cc1CCNCc1cnn(-c2ccccc2)n1
 : . | -0.45
- Cc1cccc(NC(=O)c2c(NC(=O)C(C)C)sc3c2CCC3)c1
 : -0.085 | .
- c1ccc2c(c1)CCN(c1nc3cc4c(cc3s1)OCO4)C2
 : 0.68 | 0.5
- Cc1cccc(C(=O)N2c3ccccc3C(N(C(=O)c3cccc(C)c3)c3ccccc3)CC2C)c1 (stereo not given)
 : 0.48 | .
- Cc1c(NC(=O)c2nn(C(C)C)c(=O)c3ccccc23)c(=O)n(-c2ccccc2)n1C
 : . | 2
- COc1cc(C(=O)Nc2nnc(CCS(=O)(=O)c3ccc(Cl)cc3)s2)cc(OC)c1OC
 : 0.24 | .
- C=CCn1c(C)ccc1C
 : 0.81 | -0.95
- CCCc1c(C(=O)O)cnn1-c1ccccc1
 : 0.19 | .
